Screening data from PubChem.
Autofluor counter: flagged as autofluorescent in microsphere protease counterscreen | compound autofluorescence counterscreen, microsphere flow cytometry; active compounds read high | fluorescence intensity (test concentration not listed) | 360,000 compounds, 3.1% hits | AID 624483;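 active = at least 3 SD above the mean of all compounds, about 16000 in these data; inconclusive = too few beads counted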;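 also: 100 nL of 1 mM stock went into each well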
ugtP null kill: growth inhibition of ugtP-null S. aureus, primary screen, RN4220 ugtP deletion, OD600; 16 h; some inactives read as strong as hits; 330,000 compounds, 0.54% hits; growth inhibition, % (test concentration not listed);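 active = z-score under -3 and OD600 up to 0.15 on both plates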;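 also: plate controls were untreated wells for no effect and antibiotic for full effect; wells of about 80 µL received 100 nL stock; the first replicate is given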
BJeLR lethal: MLPCN primary cell-based screen for lethality selective to Ras in HRASV12 cells. inhibition, % (concentration not given with the values). 300,000 compounds, 0.17% hits. BJeLR (HRASV12) viability, CellTiter-Glo ATP luminescence, 48 h; reference of the scale not given here;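 active = replicate mean above 50%; inconclusive = above 50% but judged a plate artefact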;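 also: 50 nL library stock added to about 25 µL; numbers are from one replicate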
RN4220 kill: growth inhibition of S. aureus RN4220, primary screen, OD600 | 330,000 compounds, 0.33% hits | 16 h | inhibition, % (test concentration not listed);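 active = z-score of -3 or lower and OD600 up to 0.18 on both plates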;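 also: plate controls were untreated cells for no effect and reference antibiotic for full effect; stock transfer was 100 nL into about 80 µL; one replicate is shown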
PrP UTR inh: inhibition of PrP 5' UTR reporter expression; cell-based PrP 5' UTR mRNA reporter, plate reader; inhibition, % (concentration not given with the values); 340,000 compounds, 0.35% hits;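 active = every replicate at 50% or more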;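 also: 0 = median of the neutral control wells; tested in H4 reporter cells; numbers are from one replicate; inactives centre near -14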
Mtb hypoxia rep: PubChem AID 1159583 | M. tuberculosis hypoxia-regulated fluorescent reporter, fluorescence | fluorescence inhibition, % (test concentration not listed) | 300,000 compounds, 0.1% hits;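 active = 35 to 45% if threefold the growth effect, above 45% if 1.5-fold the growth effect; inactive = the rest, general growth blockers included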;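 also: wells of about 50 µL received 100 nL stock; 0% = vehicle wells and 100% = reference inhibitor wells; whole bacteria with a GFP reporter of the hypoxia response; strong numbers were not always called active; many hits fall short of the cut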
Mtb hypoxia rep growth: second read-out of Mtb hypoxia rep, no call of its own (marks repeat the call); growth inhibition, %; measured here: M. tuberculosis growth (absorbance);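 0% = vehicle and 100% = reference antibiotic; read after six days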
An asterisk follows results filed as active; ? = inconclusive; · = not tested or not shown.

SMILES	Autofluor counter	ugtP null kill	BJeLR lethal	RN4220 kill	PrP UTR inh	Mtb hypoxia rep	Mtb hypoxia rep growth
O=C(CCC(=O)c1ccc(Br)cc1)Nc1cccnc1	4369	7	-6	5.0	-20	12	12
CCCN(CCC)CCNC(=S)Nc1ccc2nc3n(c(=O)c2c1)CCCCC3	4365	4	·	4.4	-23	-2	-8
CNC(=S)NN=Cc1ccc(N(C)C)cc1	·	-3	·	2.4	·	4	1
COc1ccccc1/C=C1\NC(=S)N(CC2CCCO2)C1=O (configuration not stated)	8863	11	7	4.1	-62	8	-1
CC(C)C(=O)NCCc1nc2ccccc2n1CCOc1ccccc1	2062	10	6	10	-12	-2	0
CC(C)C(NC(=O)OCc1ccccc1)C(=O)O (configuration not stated)	4838	0	0	-5.8	2	-11	6
O=c1c2cc(-c3ccccc3)sc2nc2n1N=C(c1cccs1)CS2	·	-12	1	0.7	·	-7	3
O=C(O)c1ccc(/C=N/NC(=O)c2ccc(NS(=O)(=O)c3cccs3)cc2)cc1	4803	·	5	·	2	·	·
COc1ccc(NC(=O)C2CCCN(S(=O)(=O)c3ccc(C)cc3)C2)cc1OC (configuration not stated)	4129	-7	4	-2.1	-14	-12	-10
N#Cc1ccccc1CSc1nc2ccsc2c(=O)n1Cc1ccccn1	9119	14	-13	-0.9	-5	0	2
O=C(CSc1nc2scc(-c3ccccc3)c2c(=O)[nH]1)NCCc1ccccc1	5526	-7	-3	5.8	-24	-1	-1
COc1ccc(-c2cc(C(=O)NCCN3CCOCC3)c3ccccc3n2)cc1OC	4603	8	-4	2.9	-5	4	0
COc1ccc(OCCCC(=O)OC(C)C(=O)Nc2ccc(C)cc2)cc1 (configuration not stated)	4334	10	-1	4.0	-10	-2	-6
COc1ccc(NC(=O)CSc2nc3nc(C)cc(C)c3c(=O)[nH]2)cc1OC	3451	-7	·	-6.6	-8	-3	8
Cc1ccc(N(C)C(=O)N2CCN(c3ccccn3)CC2)cc1	5975	1	1	5.7	-23	·	·
Oc1c(Br)cc(Cl)cc1C=Nc1ccc(N2CCOCC2)cc1	3466	-3	-2	-17	-6	11	-10
O=c1cc(COc2ccc(Cl)c(Cl)c2)nc2sccn12	6592	13	4	10	-37	-8	5
c1ccc(N=P(c2nc3ccccc3o2)(N2CCOCC2)N2CCOCC2)cc1	5651	-2	2	-0.7	-12	-2	-8
COc1cccc(C=NNC(=O)c2cc3c(OC)cccc3[nH]2)c1OC	·	-2	·	2.9	·	18	4
COc1cc(NC(=O)CN2C(=O)c3ccccc3C2=O)c(C(=O)O)cc1OC	2374	-6	-1	-12	-19	-5	-7
CC1CCN(S(=O)(=O)c2ccc(C(=O)N3CCN(c4ccccc4F)CC3)cc2)CC1	5964	4	-7	5.7	-20	4	2
O=C(c1ccccc1F)N1CCN(Cc2nc3sc4c(c3c(=O)[nH]2)CCCC4)CC1	3953	1	2	3.7	-7	12	0
CCOC(=O)c1c(C)[nH]c(C)c1C(=O)COC(=O)c1c(OC)cccc1OC	2200	1	7	0.7	0	7	3
CCN(CC)S(=O)(=O)c1ccc(C)c(NC(=O)c2cc(C)oc2C)c1	3360	1	1	4.5	-7	6	-2
Cc1cc(Cl)ccc1OCCCC(=O)NCCCn1ccnc1	4449	-3	3	-0.1	-3	-2	13
Cc1ccc(CN(Cc2ccccn2)C(=O)Nc2c(F)cccc2F)cc1	3830	8	-1	-1.1	-10	7	4
Cc1ccc(C)c(OCc2nnc(SCC(=O)NC(=O)NCc3ccco3)o2)c1	5667	7	-10	2.5	-42	1	10
Cc1c(NC(=O)c2cc(CC(C)C)on2)c(=O)n(-c2ccccc2)n1C	4410	17	15	-5.4	-13	1	3
Cc1cc(C)c(S(=O)(=O)Nc2c(C)n(C)n(-c3ccccc3)c2=O)cc1[N+](=O)[O-]	3742	-2	-3	0.2	-25	-10	3
C=CCn1c(COc2ccc3c(c2)CCCC3)nnc1SCC(=O)Nc1cccc(SC)c1	11818	-29	9	-6.5	-25	-2	3
CCOC(=O)N1CCC(NC(=O)CCc2c(C)nc3c(c(C)nn3C(C)(C)C)c2C)CC1	21418*	15	-1	0.3	-4	-2	-4
CCOc1cc(C=NNC(=O)CNc2ccc(C)cc2)ccc1OC(=O)c1ccccc1	·	-4	·	4.4	·	2	-2
O=C(CSc1nnc(-c2ccccc2)o1)NC1CCS(=O)(=O)C1 (configuration not stated)	2475	9	14	3.6	-13	0	2
O=C1NCCc2c1[nH]c1c(Cl)ccc(Cl)c21	5097	-10	1	-0.8	0	·	·
CCCn1cc(S(=O)(=O)c2ccc(C)cc2)c(=O)c2cc(OC)c(OC)cc21	5603	0	-21	0.2	-2	7	-2
COc1ccc(-n2cc(CNCC3CC(=O)N(C4CC4)C3)c(-c3ccccc3Cl)n2)cc1 (configuration not stated)	4276	2	5	-3.2	-9	11	5
O=C(NN=Cc1coc2ccccc2c1=O)c1cc(O)cc(O)c1	·	-1	·	7.5	·	1	-7
COc1ccc(C)cc1NC(=O)CCNS(=O)(=O)c1ccc2c(c1)CC(C)N2C(C)=O (configuration not stated)	5169	4	-16	0.2	-24	3	-2
COc1ccc(Br)cc1CNC(=O)CCC(=O)n1nc(C)c2ccccc21	5331	14	-3	2.1	-14	7	0
CC(C)N(C(=O)CON=Cc1cccc([N+](=O)[O-])c1)C(C)C	·	11	·	7.3	·	14	9
CN(C)C(CNC(=O)C1CCN(S(=O)(=O)c2ccccc2)CC1)c1ccccc1 (configuration not stated)	4426	-13	6	4.4	-5	0	-4
CC1CCCCN1C(=O)Cc1ccc(Cl)cc1 (configuration not stated)	4677	-3	-1	-0.1	-14	·	·
COc1ccc(CNCc2cccc(OC)c2OC)cc1Br	5082	3	1	2.7	-9	6	13
O=C(O)c1cccc(S(=O)(=O)N(Cc2ccccc2)c2cccc(C(F)(F)F)c2)c1	4233	-12	-9	11	-12	-8	-4
O=C(c1cc(Br)ccc1Cl)N1CCC2(CC1)OCCO2	11259	-4	-11	-0.4	-5	3	6
COc1ccc(CCNC(=O)CCc2nc3ccccc3[nH]2)cc1OC	4209	0	-10	3.1	-3	14	8
CCCCN(CC)CCCNC(=O)c1cc2c(=O)n(CC)c3ccccc3c2s1	4384	·	22	·	-4	·	·
CCOc1ccc(Br)cc1S(=O)(=O)Nc1cccc(S(=O)(=O)N(C)C)c1	2505	-3	20	7.3	-11	7	7
CC(C)(C)NS(=O)(=O)c1ccc(CCC(=O)Nc2ccc3c(c2)OCO3)cc1	7072	8	4	3.4	-13	4	4
COc1ccccc1NC(=O)CCCc1c[nH]c2ccccc12	2546	2	14	3.5	-21	8	1

Going on with the list.
SMILES	Autofluor counter	ugtP null kill	BJeLR lethal	RN4220 kill	PrP UTR inh	Mtb hypoxia rep	Mtb hypoxia rep growth
Cc1ccc(C(=O)OCC(=O)NCC2CCCO2)c(C)c1 (configuration not stated)	4360	2	2	0.5	4	12	0
COc1ccc(C(=O)N/N=C/C(C)c2ccccc2)cc1OC (configuration not stated)	4601	·	-2	·	-6	·	·
COC(=O)C1CCN(C(=O)COC(=O)Cc2c[nH]c3ccccc23)CC1	2056	4	2	-1.0	-3	·	·
O=c1sc(Nc2ccccc2)nc2ccsc12	19370*	10	-2	4.6	-51	7	-1
O=[N+]([O-])c1ccc(O)c(C=Nn2c(-c3ccccc3)n[nH]c2=S)c1	·	24	·	57	·	10	12
N/C(=N\N=C\c1ccc2c(c1)OCO2)SC1CC(=O)N(c2ccc(C(=O)O)cc2)C1=O (configuration not stated)	3113	·	2	·	-13	·	·
Oc1ccc(-c2cnc3ccccc3n2)cc1	4932	-2	-6	11	-62	10	-7
COc1cc(NC(=O)Cn2cnc3c(OCc4ccccc4)ncnc32)cc(OC)c1OC	4004	7	·	3.4	25	-13	4
Cc1ccc(-c2nc3ccccc3nc2Cl)cc1	4347	1	0	25	-35	4	-1
Cc1oc(-c2cc(F)ccc2F)nc1CN1CCN(c2ncnc3ccccc23)CC1	4219	2	·	1.6	-17	-2	11

An excerpt of these results, bar-delimited:
mol | Autofluor counter | ugtP null kill | BJeLR lethal | RN4220 kill | PrP UTR inh | Mtb hypoxia rep | Mtb hypoxia rep growth
O=[N+]([O-])c1ccc(O)c(C=Nn2c(-c3ccccc3)n[nH]c2=S)c1 | · | 24 | · | 57 | · | 10 | 12
N/C(=N\N=C\c1ccc2c(c1)OCO2)SC1CC(=O)N(c2ccc(C(=O)O)cc2)C1=O (configuration not stated) | 3113 | · | 2 | · | -13 | · | ·
Oc1ccc(-c2cnc3ccccc3n2)cc1 | 4932 | -2 | -6 | 11 | -62 | 10 | -7
COc1cc(NC(=O)Cn2cnc3c(OCc4ccccc4)ncnc32)cc(OC)c1OC | 4004 | 7 | · | 3.4 | 25 | -13 | 4
Cc1ccc(-c2nc3ccccc3nc2Cl)cc1 | 4347 | 1 | 0 | 25 | -35 | 4 | -1

(cont.)
SMILES	Autofluor counter	ugtP null kill	BJeLR lethal	RN4220 kill	PrP UTR inh	Mtb hypoxia rep	Mtb hypoxia rep growth
O=C(NCc1ccncc1)Nc1ccccc1Cl	3836	-3	6	-0.1	-34	-5	8
CCCCCCCCS(=O)C1CCS(=O)(=O)C1 (configuration not stated)	2642	·	1	·	-7	·	·
CCn1c(COc2ccc3ccccc3c2C)nnc1SCC(=O)Nc1cccc(C(=O)O)c1	?	4	5	0.0	15	3	1
Cc1[nH]c(C)c(S(=O)(=O)N(C)Cc2ccccc2)c1C(=O)N1CCCCC1	5388	5	2	2.7	-10	-5	-1
Cc1cc(=O)oc2c3c(ccc12)OC/C3=N/N	4080	·	4	·	-34	·	·
CCCCCCn1c(=O)c(C(=O)Nc2cnccn2)c(O)c2ccccc21	4223	92*	-13	35	-5	·	·
COC(=O)c1cn(NC(=O)C2CCC(C(C)(C)C)CC2)c(=O)c2ccccc12 (configuration not stated)	6451	-5	·	-2.5	-5	-4	-7
O=C(Nc1ccccc1)N(Cc1cccs1)C1CCCC1	2434	-8	-10	-7.9	-35	·	·
CC(C(=O)c1ccc(-c2ccccc2)cc1)[n+]1ccccc1 (configuration not stated)	4691	4	8	0.5	-5	14	4
CCn1c(SCC(=O)Nc2ccc(C)cc2)nnc1-c1ccccn1	4299	10	4	4.9	-21	5	-6

Results in PrP UTR inh and RN4220 kill, for some of the entries so far:
canonical_smiles | PrP UTR inh | RN4220 kill
O=C(Nc1ccccc1)N(Cc1cccs1)C1CCCC1 | -35 | -7.9
CC(C(=O)c1ccc(-c2ccccc2)cc1)[n+]1ccccc1 (configuration not stated) | -5 | 0.5
CCn1c(SCC(=O)Nc2ccc(C)cc2)nnc1-c1ccccn1 | -21 | 4.9

Next section
SMILES	Autofluor counter	ugtP null kill	BJeLR lethal	RN4220 kill	PrP UTR inh	Mtb hypoxia rep	Mtb hypoxia rep growth
CC(C)(C)c1ccc(CNC(=O)c2ccc3c(c2)NC(=O)CO3)cc1	4413	0	-1	4.8	-20	1	-3
Fc1cccc(Cl)c1CSc1nnc(CN2CCOCC2)n1-c1ccccc1	2801	·	2	·	-12	·	·
CCN(Cc1ccccc1)C(=O)c1cc(S(=O)(=O)N2CCOCC2)cn1C	4056	6	-1	9.6	-6	3	1
COc1ccc2[nH]c(=O)c(CNc3ccccc3)cc2c1	3374	-9	-9	4.9	-28	12	13
O=C(N/N=C/c1ccc(O)cc1)c1cccc(N/N=C/c2ccc(O)cc2)c1	3410	·	-3	·	8	·	·
O=C(C1CCN(S(=O)(=O)c2ccc(Cl)cc2)CC1)N1CCCC1	3622	9	-3	6.6	-19	-12	-11
COc1cccc(OCCNc2cc(Cl)ccc2[N+](=O)[O-])c1	11321	-18	-7	12	-25	20	9
COc1ccc(CC(=O)ON=C(N)Cc2cccc3ccccc23)cc1	·	7	·	3.2	·	-2	10
O=C(Cn1cncn1)NCc1cccc2ccccc12	22835*	2	-14	3.1	-14	4	4
C=CCn1c(SCc2csc(C)n2)nc2sc3c(c2c1=O)CCC(C)C3 (configuration not stated)	5493	69	-12	5.4	-24	15	14
COc1ccc(NC(=S)N(C)CC2COc3ccccc3O2)cc1 (configuration not stated)	4169	9	6	-1.9	-6	0	8
O=C(C(=O)N1CCN(Cc2ccccc2)CC1)c1c[nH]c2ccccc12	5629	6	·	1.3	6	·	·
N#Cc1cc2[nH]c3ccccc3c2[n+](-c2ccc([N+](=O)[O-])cc2)c1N	4128	1	8	2.5	-2	8	7
O=C1CSC(=S)N1N=Cc1ccc(C(F)(F)F)cc1	·	-4	·	0.8	·	18	15
